# Source: PubChem BioAssay (several laboratories)
# HSV augment: enhancers of HSV replication in host cells, fold increase, host cell viability; maximum fold increase; 220,000 compounds, 0.005% hits; HSV replication augmentation in cells; AID 1956, 2009;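 active = peak rise of 1.5-fold or more in the series; inconclusive = self-fluorescent or not available for retest; tested in PC3 cells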;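 note: first round at 10 µM; read as green reporter fluorescence; hits show the peak of a series up to 25 µM; 1 = signal of infected wells without compound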
# INS promoter inh: inhibitors of insulin promoter-driven GFP, primary screen, imaging, TRM-6 cells (human fetal islet line), eGFP reporter, cell count; reporter expression induced with tamoxifen; inhibition, % at 2 µM; 130,000 compounds, 0.9% hits;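 active = inhibition above the mean plus 3 SD, with well images judged a real hit on visual review, cut at about 60% in these data, passing the limit was not always enough; inconclusive = inhibition over the cutoff but images rejected on review; inactive = inhibition not above the cutoff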
# GALR2 ag: GALR2 receptor agonists, primary screen, cell-based | Galanin receptor type 2 (Homo sapiens), O43603 | GALR2-expressing cells, agonist activation read-out | activation, %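 (tested at 5 µM)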 | 140,000 compounds, 0.48% hits;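 active = above mean plus 3 SD of all compounds, about 5% in these data, not always enough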;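 note: 0% = vehicle buffer wells and 100% = reference agonist at full effect; tested in CHO reporter cells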
# Target sequence (O43603 whole entry, looked up): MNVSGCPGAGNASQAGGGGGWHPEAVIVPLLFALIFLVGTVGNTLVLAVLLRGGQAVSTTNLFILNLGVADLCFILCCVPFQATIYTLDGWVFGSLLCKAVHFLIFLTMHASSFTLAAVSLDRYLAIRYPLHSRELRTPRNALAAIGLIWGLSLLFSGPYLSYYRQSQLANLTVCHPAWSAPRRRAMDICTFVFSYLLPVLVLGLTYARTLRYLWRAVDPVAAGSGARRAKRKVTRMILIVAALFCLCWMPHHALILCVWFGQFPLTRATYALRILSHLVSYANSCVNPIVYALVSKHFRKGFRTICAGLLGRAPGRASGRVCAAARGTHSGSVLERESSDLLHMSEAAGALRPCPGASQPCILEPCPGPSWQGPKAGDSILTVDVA
# RGS16-Gao: modulators of RGS16 binding to Galphao, primary screen, biochemical, human proteins, multiplexed bead flow cytometry | Regulator of G-protein signaling 16 (Homo sapiens) + Guanine nucleotide-binding protein … | bead-based flow cytometry RGS16-Galphao binding, fluorescence; actives lie on both sides | binding response (% of control), % at 10 µM | 220,000 compounds, 0.38% hits | AID 1441, 2008;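 active = below 25% or above 175%, edge rows of some plates excepted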;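 note: Galphao activated by GDP with aluminum fluoride before binding; 100% = wells without compound and 0% = beads without RGS; some results beyond the cut were filed as inactive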
# Target sequence (O15492 whole entry, looked up): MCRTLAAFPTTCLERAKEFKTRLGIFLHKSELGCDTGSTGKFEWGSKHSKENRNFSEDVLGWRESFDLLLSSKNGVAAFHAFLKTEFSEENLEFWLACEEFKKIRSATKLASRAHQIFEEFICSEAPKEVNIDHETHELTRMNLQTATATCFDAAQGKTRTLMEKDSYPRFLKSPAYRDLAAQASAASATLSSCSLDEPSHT
# Target sequence (P09471 whole entry, looked up): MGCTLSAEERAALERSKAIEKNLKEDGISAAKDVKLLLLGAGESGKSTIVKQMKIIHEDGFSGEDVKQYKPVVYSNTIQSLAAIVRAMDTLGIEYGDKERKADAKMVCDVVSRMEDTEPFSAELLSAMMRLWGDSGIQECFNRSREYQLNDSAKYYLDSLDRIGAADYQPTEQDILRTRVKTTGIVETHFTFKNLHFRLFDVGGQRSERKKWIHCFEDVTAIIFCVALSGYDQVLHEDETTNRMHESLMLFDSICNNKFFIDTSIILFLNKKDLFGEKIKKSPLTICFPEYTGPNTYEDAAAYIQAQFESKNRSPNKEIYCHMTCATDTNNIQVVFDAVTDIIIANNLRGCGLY
# PKD1 kinase inh: inhibitors of human PKD1 kinase, biochemical, fluorescence polarization. Serine/threonine-protein kinase D1 (Homo sapiens), Q15139. PKD1 kinase fluorescence polarization assay. inhibition, %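 (about 10 µM by stock and volumes)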. 200,000 compounds, 0.056% hits. AID 797, 2007;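 active = inhibition of 50% or more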;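 note: controls were vehicle for no effect and a reference inhibitor for full effect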
# INS promoter inh cell count: recorded beside INS promoter inh, whose call it bears; normalized cell count, %; measured here: cell count, toxicity; reference of the scale not given here;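 cells exposed to compound for 48 h; stained nuclei by imaging scaled within each plate; lower means fewer cells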
# HSV augment primary fold: recorded beside HSV augment, whose call it bears; fold increase; compound at 10 µM; measured here: primary screen fold increase 10 uM; tested in PC3 cells;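 GFP signal in the first replicate; 1 = infected wells without compound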
# The depositor's hits bear a star; i = inactive; ? = inconclusive; . = not tested or not shown.
SMILES,HSV augment,HSV augment primary fold,INS promoter inh,INS promoter inh cell count,GALR2 ag,RGS16-Gao,PKD1 kinase inh
Cc1ccc(S(=O)(=O)CCC(=O)OCC(=O)c2c[nH]c3ccccc23)cc1,i,0.93,32,135,-1.0,120,9
CCOC(=O)c1sc2nc(CC(=O)OC)nc(NCC(=O)OC)c2c1C,.,.,.,.,-0.6,102,-2
CC(C)(C)n1nnnc1C(c1cccs1)N1CCCc2ccccc21 (stereo unspecified),i,0.9,-26,89,-1.8,74,-3
CCOc1cc(CNc2ccc(S(N)(=O)=O)cc2)cc(Cl)c1OC,i,0.75,.,.,-0.5,112,7
CCOC(=O)Cc1csc(NC(=O)/C=C\c2ccccc2Cl)n1,i,1,-72,143,.,113,-5
C=CCn1c(-c2csc3c2CCC(C)C3)n[nH]c1=S (stereo unspecified),i,0.94,19,122,0.2,95,10
Cn1c(=O)n(C)c2cc(/C=N/NC(=O)c3ccc(Cl)cc3Cl)ccc21,i,0.97,.,.,-2.3,93,3
CSCC[C@H](NC(=O)OC(C)(C)C)C(=O)N/N=C/c1cc2ccc(C)cc2nc1Cl,i,0.7,.,.,-0.8,105,-4
CC(C)(C)NCCOc1ccc2ccccc2c1,i,1.1,-18,99,.,98,-6
CC1=NN(c2ccccc2)C(=O)/C1=C/c1cccs1,i,0.98,27,104,-0.7,80,-6
O=C(COc1ncnc2sccc12)Nc1cccc(S(=O)(=O)N2CCCC2)c1,i,1.1,.,.,.,99,.
Cc1ccc(NC(N)=S)cc1C,i,0.87,.,.,-1.8,104,5
Cc1ccc(NC(=O)CCC(=O)OCC(=O)c2ccc(Oc3ccc([N+](=O)[O-])cc3)cc2)cc1C,.,.,-49,151,-3.3,93,7
COc1ccccc1N(C)S(=O)(=O)c1ccc(C(=O)OCC(=O)N(C)c2ccccc2)cc1,i,1,.,.,.,97,-1
COC(=O)c1ccccc1NC(=O)c1ccc(COc2cc(C)cc(C)c2)o1,i,0.75,.,.,-1.6,106,2

# Molecules shown so far containing an aryl methoxy group:
SMILES,HSV augment,HSV augment primary fold,INS promoter inh,INS promoter inh cell count,GALR2 ag,RGS16-Gao,PKD1 kinase inh
CCOc1cc(CNc2ccc(S(N)(=O)=O)cc2)cc(Cl)c1OC,i,0.75,.,.,-0.5,112,7
COc1ccccc1N(C)S(=O)(=O)c1ccc(C(=O)OCC(=O)N(C)c2ccccc2)cc1,i,1,.,.,.,97,-1

# More structures:
SMILES,HSV augment,HSV augment primary fold,INS promoter inh,INS promoter inh cell count,GALR2 ag,RGS16-Gao,PKD1 kinase inh
C/C(=C/c1oc2ccc(O)cc2c1[N+](=O)[O-])N(C)C,i,0.91,-39,90,-1.9,20,-2
O=C(NCc1c(Cl)cccc1Cl)c1ccc2nnsc2c1,i,1.1,.,.,.,102,.
Cc1ccc(NC(=O)CSc2ccc(-c3ccco3)nn2)c(C)c1,i,0.88,-53,50,.,102,-6
Cc1cc2occ(CC(=O)OCC(=O)Nc3sc4c(c3C#N)CCC(C)C4)c2cc1C (stereo unspecified),i,0.8,38,105,-1.9,105,-15
Cc1c(Cl)cccc1NC(=S)NCC(c1cccnc1)N(C)C (stereo unspecified),i,0.81,-20,124,.,104,-2
Fc1ccc(CSc2ncnc3nc[nH]c23)cc1,i,0.93,.,.,-0.3,105,-12
CCOc1ccc(OCc2ccc(C(=O)N3CCc4ccccc4C3)o2)cc1,i,1,.,.,-2.1,106,-8
O=C1c2ccccc2C2=Nc3ccccc3SC(c3ccc(Cl)cc3)C12 (stereo unspecified),i,0.74,17,154,-2.4,99,2
CCOC(=O)C1=C(N)Oc2cc(C)oc(=O)c2C1c1cccnc1 (stereo unspecified),i,1.1,.,.,-1.2,111,-13
CC(C)(C)NS(=O)(=O)c1cnc(Cl)c(Cl)c1,i,0.93,-54,132,-2.4,104,2
COc1cc(S(=O)(=O)N(Cc2ccc(C)cc2)C2CCCCC2)ccc1-n1cnnn1,i,1.1,-25,98,-1.4,67,3
CCCCN(C)S(=O)(=O)c1ccc(C(=O)Nc2nnc(-c3ccco3)o2)cc1,i,0.97,18,116,.,102,-7
CCOCCCNC(=O)c1ccccc1SC,i,0.96,32,114,-0.2,99,1
CC(C)c1cc(NCCCN2CCOCC2)n2c(nc3ccccc32)c1C#N,i,0.83,-47,55,2.3,95,-6
CCOc1ccc(CCNC(=O)CN2CCN(Cc3ccccc3C)C2=O)cc1OCC,i,0.98,.,.,-2.4,98,-7

# A section from the list above, as a working copy:
SMILES,HSV augment,HSV augment primary fold,INS promoter inh,INS promoter inh cell count,GALR2 ag,RGS16-Gao,PKD1 kinase inh
C/C(=C/c1oc2ccc(O)cc2c1[N+](=O)[O-])N(C)C,i,0.91,-39,90,-1.9,20,-2
O=C(NCc1c(Cl)cccc1Cl)c1ccc2nnsc2c1,i,1.1,.,.,.,102,.

# The main list resumes, starting 3 compounds before the break.
SMILES,HSV augment,HSV augment primary fold,INS promoter inh,INS promoter inh cell count,GALR2 ag,RGS16-Gao,PKD1 kinase inh
CCOCCCNC(=O)c1ccccc1SC,i,0.96,32,114,-0.2,99,1
CC(C)c1cc(NCCCN2CCOCC2)n2c(nc3ccccc32)c1C#N,i,0.83,-47,55,2.3,95,-6
CCOc1ccc(CCNC(=O)CN2CCN(Cc3ccccc3C)C2=O)cc1OCC,i,0.98,.,.,-2.4,98,-7
CC(C)(C)CC(=O)NCCCCCCNC(=O)CC(C)(C)C,i,0.94,-37,92,0.9,99,-5
COc1cccc(C(=O)c2c(C)c(CCC#N)n3ccccc23)c1OC,i,0.92,.,.,.,100,-4
CN(CC(=O)Nc1ccc(Cl)c(C(F)(F)F)c1)C(=O)/C=C/c1ccco1,i,0.94,45,97,-2.9,101,-8
Cc1cccc(N(CC(=O)NCCSc2ccccn2)S(=O)(=O)c2ccccc2)c1,i,1,-60,75,-0.7,99,-3
CCOC(=O)c1[nH]c(C)c(/C(O)=C2\C(=O)C(=O)N(CCN(C)C)C2c2ccc(C)o2)c1C (stereo unspecified),i,0.75,-3,113,0.3,102,-7
CC(C)C[C@H](NC(=O)NCc1ccccc1Cl)C(=O)O,i,1,7,179,0.5,104,2
O=C(COc1ccc(Br)cc1Cl)NC(=O)NCc1ccccc1,i,1,3,85,1.4,46,-6
COc1ccccc1CNC(=O)C(Cc1c[nH]c2ccccc12)NC(=O)OCc1ccccc1 (stereo unspecified),i,0.81,0,101,-1.7,87,-6
CSCC[C@H](NC(=O)NCc1ccccc1F)C(=O)O,i,0.96,19,120,-2.8,108,-6
CC(C(=O)Nc1ccc2c(c1)OCCO2)N(C)Cc1c(F)cccc1Cl (stereo unspecified),i,1,.,.,.,102,0
COc1cc(NC(=S)NCCO)c(OC)cc1Cl,i,1.2,.,.,.,101,.
COc1cccc(OC)c1C(=O)NC(=S)Nc1ccc2oc(-c3ccncc3)nc2c1,i,0.99,.,.,.,104,-5
O=C1/C(=C/c2cccs2)NC(=S)N1C1CC1,.,.,-17,87,-0.3,99,4
CCCn1nc(NC(=O)C2CCCO2)c2cc3cc(C)ccc3nc21 (stereo unspecified),i,0.93,0,88,1.7,101,-3
O=c1cnc(-c2ccc(Cl)cc2)cn1O,i,0.88,-11,112,.,92,-5
Cc1nn2c(C)nc3sc4c(c3c2nc1=O)CC(C)(C)OC4,i,0.83,17,151,-1.2,103,-5
CC(=O)COC(=O)CCc1nc2ccccc2[nH]c1=O,i,1,9,54,-1.5,100,-5
Cc1ccc(N2C(=S)NC3c4ccccc4OC2(C)C3C(=O)N(C)C)cc1 (stereo unspecified),i,0.91,20,90,.,98,-2
COc1ccc(CC(=O)Nc2ccc(-c3cn4ccccc4n3)cc2)cc1OC,i,1,-5,140,-2.7,108,-10
COc1ccc(-c2ccc(CCC(=O)O)n2Cc2ccco2)cc1,i,1.1,.,.,.,105,-5
O=C(Nc1ccc(F)cc1F)c1cc2n(n1)C(C(F)(F)F)C1CCCCC1N2 (stereo unspecified),i,0.75,18,117,-1.3,104,-3
COc1ccc2c(c1)oc(=O)c1cc(OC)ccc12,i,0.52,.,.,.,98,6
COC(=O)CCCCCc1ccc(C(C)=O)s1,i,0.68,-123,62,0.7,98,-4
COc1ccc(-c2cn[nH]c2N)c(OC)c1,i,0.98,84*,85*,0.2,92,6
CCN(C(=O)CN1CC(C)OC(C)C1)c1c(N)n(Cc2ccccc2)c(=O)[nH]c1=O (stereo unspecified),i,0.94,21,98,.,100,0
O=c1ccc(-c2nc3ccccc3n2Cc2ccccc2Cl)c[nH]1,i,1.1,.,.,.,102,-9
COc1ccc(-c2c(C#N)c(N)nc3c2c(=O)n(C)c(=O)n3C)cc1,i,0.87,-81,123,-0.5,96,0
Cc1cc(C(=O)N/N=C/c2ccc(-c3ccccc3Cl)o2)n[nH]1,i,1.1,-18,38,-1.1,142,29
Cc1sc(C(=O)NCc2cccnc2)c2nc(C)n(CC(=O)NCc3cccnc3)c(=O)c12,i,0.94,.,.,-1.0,101,2
Cc1cc(C(=O)COC(=O)c2ccc(N)cc2)c(C)n1-c1c(C)n(C)n(-c2ccccc2)c1=O,i,1,.,.,.,102,10
Cc1ccc(OCCNC(=O)c2ccccc2N)cc1,i,0.86,.,.,-0.7,103,2
N#Cc1cccc(NCC(=O)Nc2ccc3c(c2)OCCO3)c1,i,0.87,8,153,.,98,-7
COc1ccc2[nH]c(=O)c(CN(CCO)C(=O)c3ccccc3F)cc2c1,i,1,35,149,-2.4,96,-2
CCCCC(NC(C)=O)c1nc2ccccc2[nH]1 (stereo unspecified),i,0.98,.,.,-1.8,109,-11
Cc1cccc(NC(=O)CSc2ncnc3nc[nH]c23)c1,i,0.99,.,.,-0.8,101,4
Cc1cccc(CC(=O)N2CCN=C2SCc2ccc([N+](=O)[O-])cc2)c1,i,0.79,.,.,-1.7,92,-1
O=C(CSc1nc2ccccc2c(=O)n1-c1ccccc1)N1CCCC1,i,0.91,0,140,-1.1,104,-8
Cn1c(N2CCC(C(N)=O)CC2)nc2c1c(=O)n(Cc1ccc(Cl)cc1)c(=O)n2C,i,0.78,.,.,-1.1,107,-1
COc1ccc(NC(=O)C(CC(C)C)NC(=O)c2ccccc2C)cn1 (stereo unspecified),i,0.98,3,95,-1.9,101,-4
O=C(NCCCN1CCOCC1)Nc1ccc(Cc2ccc(NC(=O)NCCCN3CCOCC3)cc2)cc1,i,0.84,-43,88,-1.0,99,-6
COc1ccc(-n2ncc3c(=O)n(CC(=O)Nc4ccc(S(=O)(=O)N5CCOCC5)cc4)cnc32)cc1,i,1.1,.,.,-1.7,97,3
COc1ccc(/C=C2/SC(=O)N(CC(=O)Nc3cc(C)on3)C2=O)cc1OC,i,0.85,-14,132,0.2,96,-3
CCN1CCN(C(c2cccs2)C(C)NC(=O)CC(C)C)CC1 (stereo unspecified),?,.,.,.,-1.9,86,0
COc1ccc(N2C(=O)C(CC(=O)Nc3ccc(F)cc3)N(CCc3cccs3)C2=O)cc1 (stereo unspecified),i,0.9,.,.,0.0,33,-3
CC1(C)Cc2nc(-c3ccccc3)nc(SCC(=O)N3CCCC3)c2CO1,i,1.1,.,.,.,112,.
O=C(CSc1nc2ccsc2c(=O)n1Cc1ccccc1)NCC1CCCO1 (stereo unspecified),i,0.83,-14,111,.,98,-6
COc1ccc2c(c1OC)C(=O)N(c1ccc3c(c1)CCC3)C2=O,i,0.96,31,142,-0.7,112,-2
CCOC(=O)c1c(C)oc2ccc(OC(=O)N3CCOCC3)cc12,i,1,-15,102,-0.8,100,-17
CCOC(=O)C(NC(=O)Cc1ccccc1)(Nc1cc(C)on1)C(F)(F)F (stereo unspecified),i,1,-62,60,-0.4,104,-2
CCOC(=O)CSc1nc(C(C)(C)C)nc2ccccc12,i,0.87,5,138,.,113,0
COc1ccc(N2C(=S)N(C(=O)c3ccccc3)C(=Nc3ccccc3)C2=Nc2ccccc2)cc1,i,0.86,-188,64,-3.3,.,-1
CCCCNC(=S)NC(=O)c1ccc(Cl)cc1Cl,i,1,.,.,-2.5,84,-2
O=C(Cn1cnc2c(cnn2-c2ccc(Cl)cc2)c1=O)NC1CCCCC1,i,0.87,-43,94,-0.7,106,4
O=c1[nH]c(C2CC2)nc2sc3c(c12)CCCC3,i,1,.,.,.,93,-4
CCN(CC)c1ccc(/C=N/NC(=O)C(O)c2ccccc2)cc1 (stereo unspecified),i,0.98,.,.,.,101,3
COc1cccc(N/C(=N/C(=S)Nc2ccc(C)cc2C)Nc2nc(C)cc(C)n2)c1,i,0.8,.,.,.,111,.
CN(C)Cc1ccc(F)cc1Sc1cc(Cl)ccc1Cl,i,1,38,109,1.6,108,1
